Bioassay records (PubChem)
HSD17B inhib = blocks hydroxysteroid 17-beta dehydrogenase activity. Potency, µM (doses to about 57.1 µM), for inactives: at the top dose activity change, negative = inhibition, usual class: inhibitors. 7.6% of 75,000 active. recombinant HSD17B10, NADH fluorescence kinetic; many of its hits are not listed in these tables. AID 893. Q99714; active = well fitted inhibition curve with a large enough effect; inconclusive = small, poorly fitted or top-dose-only effect; inactive = no such curve, though single readings can be large or run the other way;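 also: the protocol describes HADH2 (HSD17B10) and not the HSD17B4 of the title; nearly all actives have a fitted effect of over 70% in size; most hits overshoot -100% by far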
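20 nM HADH2, pH 9.0 Tris/Tween; cpd preinc 15 min RT; start w/ 1 mM NAD+ + 90 uM b-hydroxybutyryl-CoA; kinetic fluor ex360/em450 q30s x 4 min; delta last-first.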
The depositor's hits bear a star; ? = inconclusive; [ ] = dose if it differs, or a comment. % is scaled to controls: 0 for no effect and ±100 for the full control effect; potency is read from the fitted curve at half-maximal effect. These rows are one share of the data; count on the stated rates, not on these rows.

The first 6 compounds as a preview:
molecule | HSD17B inhib
NC(=O)SCC(=O)Nc1ccc2ncccc2c1 | -2%[11.4 µM]
COC(=O)c1ccc(CSc2nnc(CNC(=O)COc3ccc(Cl)cc3)o2)o1 | 9%
CCOC(=O)Cn1c(=O)oc2cc(S(=O)(=O)N(C)Cc3ccco3)ccc21 | -1%
O=C(c1ccc(-c2cccc(C(F)(F)F)c2)o1)N1CCOCC1 | 1%
COc1ccc(S(=O)(=O)NCCC(=O)NCc2ccc(F)cc2)cc1 | 5%
CC1Cc2ccccc2N1C(=O)C1CCCN(S(=O)(=O)c2cccc3nsnc23)C1 (stereo not drawn) | -20%

Main list, previewed entries included:
molecule | HSD17B inhib
NC(=O)SCC(=O)Nc1ccc2ncccc2c1 | -2%[11.4 µM]
COC(=O)c1ccc(CSc2nnc(CNC(=O)COc3ccc(Cl)cc3)o2)o1 | 9%
CCOC(=O)Cn1c(=O)oc2cc(S(=O)(=O)N(C)Cc3ccco3)ccc21 | -1%
O=C(c1ccc(-c2cccc(C(F)(F)F)c2)o1)N1CCOCC1 | 1%
COc1ccc(S(=O)(=O)NCCC(=O)NCc2ccc(F)cc2)cc1 | 5%
CC1Cc2ccccc2N1C(=O)C1CCCN(S(=O)(=O)c2cccc3nsnc23)C1 (stereo not drawn) | -20%
COc1ccc(N2CCN(C(=O)C(CCSC)N=C3NS(=O)(=O)c4ccccc43)CC2)cc1 (stereo not drawn) | 10%
O=C(CCN1CCN(CCO)CC1)Nc1ccc(OCc2ccccc2)cc1 | 3%
COc1ccccc1CN1C(=O)[C@@H]2C(CC(N)=O)NC3(C(=O)Nc4c3ccc(Cl)c4C)[C@@H]2C1=O (stereo partly drawn) | 7%
CCc1ccccc1N(C(=O)c1cccs1)C1C=CS(=O)(=O)C1 (stereo not drawn) | 4%
COc1ccc2c(c1)CCc1c(C(=O)N3CCOCC3)noc1-2 | -8%
CN(Cc1ccccc1)c1nc2c(c(=O)[nH]c(=O)n2C)n1C | 18%
Cc1ccc(C(c2nnnn2C(C)(C)C)N(Cc2ccco2)Cc2cccs2)cc1 (stereo not drawn) | 3%
COc1ccc2[nH]cc(CCNc3nc(-c4cccnc4)nc4ccccc34)c2c1 | 4%
Cc1ccc(-c2nc(CSCC(=O)N3CCOCC3)c(C)o2)cc1 | -14%
O=C(c1ccncc1)c1ccc(Br)cc1 | -11%
O=C1c2ccccc2C(Nc2ccc3c(c2)OCO3)N1Cc1ccco1 (stereo not drawn) | ?
CN=C1SC(C(=O)O)CC(=O)N1C (stereo not drawn) | 2%
Cc1noc(C)c1COc1ccc(C(=O)OCC(=O)NC(=O)C2COc3ccccc3O2)cc1 (stereo not drawn) | 15%
C/C(N)=C(/C#N)C(=O)COC(=O)c1cc(C)n(-c2ccc(F)cc2)c1C | -6%
Cc1cccc(CSc2nnc(-c3ccccn3)n2N)c1 | -19%
CC(C)=NOCc1cccc(-c2cc(-c3ccccc3)no2)c1 | 6%[11.4 µM]
O=c1cc(-c2cccc(O)c2)oc2c(O)c(O)ccc12 | ?
CCc1ccc2[nH]c(=O)c(CN(CCN(C)C)C(=O)Nc3ccccc3)cc2c1 | -7%
CCC1(CC)Cc2ccccc2-c2nc(CN3CCOCC3)[nH]c(=O)c21 | 0%
CS(=O)(=O)N1CCC(NC(=O)Cc2ccccc2)CC1 | 1%
C=CCOn1c(=O)c(C)[n+]([O-])c2ccccc21 | ?
C1CCN=C(Nc2nc3c(s2)CCCC3)CC1 | -2%
O=S(=O)(c1ccccc1)N1CCC2(CC1)CN(c1ccccn1)C2 | 32µM*
Cn1c(=O)c2c(ncn2CC(=O)N(Cc2ccccc2)c2ccccn2)n(C)c1=O | 12%
CC(C)(C)OC(=O)N1CCC[C@H]1c1nnc(SCc2ccc(Cl)cc2Cl)o1 | -3%
c1ccc(CCNC2=NCCCS2)cc1 | 3%
CC(=O)CCc1c(C)[nH]c2ccccc2c1=O | -4%
C=CCn1c(SCn2nnc3ccccc3c2=O)nc2scc(-c3cccs3)c2c1=O | 0%
C/C(CCN1CCCCc2nc(C)c(C)cc21)=N\O[C@@H](C)c1cc(-c2c(C)cc(C)cc2C)no1 | -4%[11.4 µM]
CC(C)(C)OC(=O)N1CCC[C@H]1c1nnc(SCc2ccccc2F)o1 | -4%
O=c1c2ccccc2cnn1-c1nc2ccccc2s1 | ?
CC1=CC(C)(C)N2C(=O)C3(C(C#N)=C(N)Oc4cc(C)oc(=O)c43)c3cccc1c32 (stereo not drawn) | 2%
CCS(=O)(=O)N1CCC(C(=O)NCCCN2CCCC2)CC1 | 6%
COc1ccc(N2CCN(Cc3nc4c(c(=O)[nH]c(=O)n4C)n3CCCc3ccccc3)CC2)cc1 | 4%
O=C(Oc1ccccc1)N1CCC2(CC1)CN(c1ccccn1)C2 | ?
O=C(O)c1ccccc1C(=O)OCCCCOC(=O)c1ccccc1C(=O)O | -2%
COc1ccc(CN2C(=O)c3ccccc3C2C(=O)NC2CCCC2)c(OC)c1 (stereo not drawn) | 1%
Cc1cccc(N2CCN(C(=O)c3cc4c(C)nc5ccccc5c4o3)CC2)c1C | 1%
c1ccc(CCn2nnnc2C(c2cccnc2)N2CCN(c3ccccc3)CC2)cc1 (stereo not drawn) | 2%
CN1C[C@@H]2C(c3ccccc3)C3(c4ccccc4)CC2(C3)[C@H]1c1ccccc1 (stereo partly drawn) | -3%
CCc1ccc(OCc2nc(-c3ccccn3)no2)c(Br)c1 | -11%
O=C(O)CCC(=O)Nc1ccc2ccccc2c1 | 4%[11.4 µM]
CC1=CC(C)(C)N(C(=O)c2ccccc2)c2ccccc21 | 2%
CN(C)Cc1nc2ccccc2c(=O)n1Cc1nc(-c2cc3ccccc3o2)cs1 | -7%
O=C(Cc1cc(=O)[nH]c(=O)[nH]1)NCCN1CCOCC1 | ?
CCCOC1(NC(=O)c2ccccc2)C(C)=CC(=O)C=C1C | -12%
O=C(c1cc2ccccc2oc1=O)N(Cc1cccs1)C1CCS(=O)(=O)C1 (stereo not drawn) | -23%
Cc1ccc2c(c1)[nH]c1c(=O)n(Cc3ccccn3)cnc12 | ?
Cc1ccc(C)c(N2CCN(C(=O)Cn3cccc3)CC2)c1 | -7%
O=C(c1cc(-c2ccco2)on1)N1CCCc2ccccc21 | ?
O=C(Nc1ccccc1N1CCN(c2ccccc2)CC1)C1CCCCC1 | 3%
CCOc1cc2[nH]c(=S)n(CCCCC(=O)NCc3ccco3)c(=O)c2cc1OCC | -3%
O=C(Nc1cc(C(=O)N2CCCC2)ccc1N1CCCC1)c1ccccc1 | 7%
CCC(C)Nc1nc2c(c(=O)n(C)c(=O)n2C)n1Cc1ccc(F)cc1 (stereo not drawn) | 1%

Additional entries
molecule | HSD17B inhib
CCCN1CCC(N(C)CCc2ccc(OC)c(OC)c2)CC1 | -6%
Cc1nnc(SCC(=O)Nc2ccc3c(c2)COC3=O)n1-c1ccccc1 | -5%
COc1cc(C(=O)Nc2ccc(S(=O)(=O)N3CCCCC3C)cc2)cc(OC)c1OC (stereo not drawn) | ?
C[C@@H]1O[C@H](O[C@@H]2\C=C/C=C\C=C/C=C\C[C@H](C)OC(=O)/C=C\[C@H]3O[C@@H]3C[C@H](O)C[C@]3(O)C[C@@H](O)[C@@H](C(=O)O)[C@H](C2)O3)[C@@H](O)[C@H](N)[C@@H]1O (stereo in doubt) | -4%[25.6 µM]
O=C(Oc1c(Cl)cc(Cl)c2cccnc12)N1CCOCC1 | 7%
CCNc1nc(C)nc2c1oc1ccccc12 | -6%
Cc1cc(NC(=O)C2=C(O)c3ccccc3S(=O)(=O)N2C)no1 | 0%
CCOC(=O)c1cn(CC)c2ccc(S(=O)(=O)N3CCC(C)CC3)cc2c1=O | -6%
CN1CCN(S(=O)(=O)c2ccc(SCCOc3ccccc3)nc2)CC1 | 0%
COCCNC(=O)CSc1nc2ccc(N3CCOCC3)cc2c(=O)n1CCc1ccccc1 | ?
Cc1c(NC(=O)C2CCCN2C(=O)c2cccs2)c(=O)n(-c2ccccc2)n1C (stereo not drawn) | 1%
c1ccc2sc(SN3CCOCC3)nc2c1 | ?
Cc1nn(Cc2ccccc2)c(C)c1NC(=O)CSc1nc2sc3c(c2c(=O)n1C)CCC3 | 7%
Nc1cc(=O)[nH]c(=O)n1CC1CC1 | 5%
CC(=O)N1CCN=C1SCc1ccccc1 | 3%
CCOCCCNC(=O)CN1C(=O)C(CC)Oc2ccccc21 (stereo not drawn) | 8%
Cc1cc(C)cc(N(CC(=O)O)S(=O)(=O)c2cccnc2)c1 | -4%
Cn1cccc1C(=O)N1CCC2(CCCN(Cc3nccs3)C2)CC1 | 12%
CCOC(=O)C1CCCN(C(=O)c2cc(Cl)ccc2Cl)C1 (stereo not drawn) | -4%
Clc1ccc(-c2nnn(Cc3nc4ccccc4s3)n2)cc1 | -7%
CC1CCCC(NC(=O)c2n[nH]c(=O)c3ccccc23)C1C (stereo not drawn) | -5%
COc1ccc(C)cc1NC(=O)Cn1cnc2sc(C)c(S(=O)(=O)N3CCOCC3)c2c1=O | -9%
CCN(C(=O)COC(=O)c1cnc(C)cn1)C1CCCCC1 | 1%
COC(=O)[C@H](CCSC)NC(=O)Nc1ccc(C)cc1 | 9%
CCN(CC)S(=O)(=O)c1cc(C(=O)Nc2ccccn2)ccc1C | 4%
COc1ccccc1N1CCN(CCCCNC(=O)c2ccc3ccccc3c2)CC1 | -1%[25.6 µM]
c1cncc(-c2ccc3ncnc(N4CCNCC4)c3c2)c1 | -4%
COC(=O)c1c(-c2cccnc2)csc1NC(=O)c1cc(C)on1 | 25µM*
Cc1cc(NC(=O)CSc2ccc(-c3nc4cc(C)c(C)cc4[nH]3)cn2)no1 | 16µM*
O=C(NC1CCCC1)C1CCCN(S(=O)(=O)c2cnc[nH]2)C1 (stereo not drawn) | 4%
CCOC(=O)C1CCN(Cc2cnc(NC(=O)OC)s2)CC1 | 3%
Cn1c(=O)c(C(=O)COC(=O)c2cc(-c3ccco3)nc3ccccc23)c(N)n(Cc2ccccc2)c1=O | ?
CCOC(=O)C1(CC)NC(c2ccco2)C2C(=O)N(c3ccc(C)cc3)C(=O)C21 (stereo not drawn) | -8%
Cc1nc2ncnn2c(N2CCN(C(c3ccccc3)c3ccccc3)CC2)c1C | ?
NCCC(=O)N[C@@H](Cc1cnc[nH]1)C(=O)O | 1%
COC(=O)CSc1nnc(-c2cccs2)n1-c1ccc(Cl)cc1 | -5%
Cn1c(N)c(C(=O)COC(=O)c2cc(-c3ccccc3)nc3ccccc23)c(=O)n(C)c1=O | ?
COc1ccc(-n2nnc3c(=O)n(Cc4cc(C)ccc4C)cnc32)cc1 | 3%
CCN(CC)C(=O)c1sc(NC(=O)Cc2cccs2)c(C#N)c1C | -2%
CCCCCC1C(=O)CCC1CC(=O)O (stereo not drawn) | -4%
COc1ccc2[nH]c(=O)c(CN(CCCN3CCOCC3)C(=O)NCc3ccccc3)cc2c1 | 32µM*
CC(Sc1nc(N2CCOCC2)c2c(c1C#N)CC(C)(C)OC2)C(=O)Nc1ccccc1 (stereo not drawn) | -10%
Cc1cc2nc([C@H](C)C(=O)c3ccc(Cl)cc3)c(=O)[nH]c2cc1C | -4%[11.4 µM]
O=C(OCc1nnc(-c2ccc(Cl)cc2)o1)c1ccc(=O)n(Cc2ccccc2)n1 | 6%
Nc1ccc2c3c(cccc13)C(=O)NC2=O | -7%
Cc1ccc(C)c(Cn2nnc3c(=O)[nH]c(C4CCCN(C(=O)CC(C)C)C4)nc32)c1 (stereo not drawn) | -9%
CN1CCc2c(sc3c2c(=O)n(-c2ccccc2)c2nnc(SCc4ccc(F)cc4)n32)C1 | ?
O=c1cc(-c2ccccc2)nc(N2CCN(Cc3ccccc3)CC2)[nH]1 | ?
Cn1c(=O)c2[nH]c(CN(Cc3ccccc3)Cc3ccccc3)nc2n(C)c1=O | -1%
Cc1c(NC(=O)c2nn(C)c(=O)c3ccccc23)c(=O)n(-c2ccccc2)n1C | 0%
c1ccc(C2=NCCCN2)cc1 | 13%
O=C(NCc1ccco1)c1ccc(S(=O)(=O)c2cccc(S(=O)(=O)N3CCOCC3)c2)cc1 | -12%
O=C(CCN1C(=O)c2ccncc2C1=O)Nc1ccc2c(c1)OCCO2 | 9%
CC(C)[C@H](NC(=O)Nc1ccc2c(c1)OCCO2)C(=O)O | 3%
NC(=O)c1ccc(F)cc1 | 6%
OCC1OC(Oc2cccc3cccnc23)C(O)C(O)C1O (stereo not drawn) | 6%
Cc1sc2nc(SCC(=O)NCc3ccco3)n(C)c(=O)c2c1C | -2%
COc1ccc(NC(=O)c2c(SC)nsc2SC)cc1 | -27%
COc1ccc(NC(=O)N2CCCC2C(=O)Nc2ccc(C)cc2)cc1 (stereo not drawn) | 9%
CCOC(=O)N1CCN(S(=O)(=O)c2cc(Cl)ccc2Cl)CC1 | 5%

Next structures
molecule | HSD17B inhib
Cn1c(-c2ccc3ccccc3n2)nc2cnccc21 | -15%
O=C(c1ccco1)N1CCCSC1=Nc1ccccc1 | 6%
O=C(/C=C\c1ccccc1)c1ccccc1O | 2%[11.4 µM]
CC(C)CC(NC(N)=O)C(=O)OCC(=O)NC(=O)NC1CCCC1 (stereo not drawn) | 5%
O=C(Nc1ncc2c(n1)CC(c1ccco1)CC2=O)c1ccc(Cl)cc1 (stereo not drawn) | -14%
